ALR inh = inhibitors of human ALR sulfhydryl oxidase, primary screen, biochemical, H2O2 detection, HRP-luminol luminescence, single point | inhibition, % (no concentration beside the values) | hit rate 3.8% among 290,000 | purified ALR, DTT oxidation;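 active means mean and each replicate at 75% or more; inconclusive means only one of the two met; inactive means neither met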;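 further: stock transfer was 7.5 nL into about 7.5 µL; 0% = neutral wells and 100% = wells with inactivated enzyme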
Target sequence (P55789 whole entry, looked up): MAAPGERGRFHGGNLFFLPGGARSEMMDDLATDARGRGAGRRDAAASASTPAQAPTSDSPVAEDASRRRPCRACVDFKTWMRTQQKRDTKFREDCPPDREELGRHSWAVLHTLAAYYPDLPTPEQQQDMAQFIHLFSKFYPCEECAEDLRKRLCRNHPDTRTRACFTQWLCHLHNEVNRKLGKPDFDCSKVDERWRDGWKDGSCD
Calb FLC = C. albicans growth inhibition with fluconazole, primary screen, CaCi-2 strain, Alamar Blue fluorescence | growth inhibition, % (test concentration not listed) | hit rate 0.57% among 300,000 | C. albicans CaCi-2 (fluconazole-resistant clinical isolate) + fluconazole, 48 h | AID 1979, 2009;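 active means most replicates above 75%; inconclusive means exactly half above 75%; inactive means most below 75%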;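 further: all wells also contain fluconazole at 8 µg/ml as a sub-toxic cotreatment; 0% = median of DMSO wells and 100% = median of geldanamycin control wells; wells of about 8 µL received 7.5 nL stock; the first replicate is given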
LANA-H2A inh = blockers of LANA interaction with H2A/H2B – biochemical, FP readout, HTS, primary screen. hit rate 0.6% among 320,000. cell-free LANA-H2A/H2B peptide, fluorescence polarization. AID 2629, 2010. Protein LANA1 (Human herpesvirus 8 type P (isolate GK18)), Q9QR71. inhibition, % (no concentration beside the values); in the data active means inhibition mostly above about 10%, no sharp cut-off; inactive means mostly below about 6.7%;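 further: stock transfer was 7.5 nL into about 10 µL; 0% = median of vehicle wells and 100% = median of positive control wells; one replicate is shown; the record names a cut of 25% in any replicate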
Beta apoptosis = inhibitors of cytokine-induced beta cell apoptosis, primary screen, luminescence; INS-1E cytokine-induced death, ATP luminescence, 48 h; percent of positive-control rescue, neutral wells zero; hit rate 0.8% among 300,000; AID 435005, 2010; protection from apoptosis, % (concentration not given with the values);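 active means all replicates at 75% or more, or half of them and the mean; inconclusive means half reach 75% but not the mean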;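 further: 0% = cytokine-treated negative control wells and 100% = positive control rescue; higher means more ATP so stronger rescue from cytokine killing; wells of about 40 µL received 100 nL stock; the first replicate is given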
Ecoli rRNA inh = reduced GFP signal of wild-type E. coli, primary screen, bacterial rRNA inhibitor project, GFP/RFP fluorescence, OD600, single point; GFP signal change (wild-type ribosome), % (concentration not given with the values); E. coli WT GFP vs humanized-ribosome RFP mutants, 24 h; stronger effect = lower value; DMSO median 0, no signal -100; hit rate 1.6% among 350,000;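 active means significant combined selectivity score with lowered wild-type GFP, culture density cut under 30%, mutant RFP and density less affected; inactive means any of these conditions unmet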; further: one replicate is shown; some compounds called inactive have numbers as strong as hits
A1 inh = caspase 3/7 activation in MEF A1-2A-BIM cells, primary screen, A1 inhibitor project, cell-based, luminescence, HTS; Caspase-Glo 3/7 luminescence, 3 h; percent of clofoctol response, vehicle zero; caspase activation, % (test concentration not listed); hit rate 0.066% among 330,000;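 active means over half of replicate activation scores above 10%, or exactly half above 10 with the replicate mean above 10; inconclusive means replicate mean below 10 yet half the replicates above 10; inactive means over half of replicates below 10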;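 further: wells of about 30 µL received 50 nL stock; many hits fall short of the cut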
T cruzi inh = inhibitors of intracellular T. cruzi growth, primary screen, luminescence, NIH3T3 host cells; hit rate 1.4% among 300,000; T. cruzi beta-gal in NIH3T3, 90 h; inhibition, % (concentration not given with the values);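 active means mean inhibition across valid replicates above about 55%, limit read from the data; inconclusive means mean below that limit but half or more replicates reach it; inactive means mean below it, under half of replicates reach it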;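 further: signal also drops with host cell toxicity which is not excluded here; 0% = plate median of DMSO wells and 100% = zero luminescence signal; higher percent means less beta-gal luminescence so fewer parasites; stock transfer was 50 nL into about 50 µL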
Beta2AR agonist = beta2AR agonists driving receptor internalization, primary screen, cell-based, FAP fluorogen, flow cytometry; Am2.2-beta2AR cells; reference of the scale not given here; response, % (no concentration beside the values); hit rate 0.43% among 340,000;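 active means response above a set limit, near 3 SD of response in nonfluorescent compounds, cut at about 42% in these data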;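 further: stock transfer was 100 nL into about 11 µL; a reference agonist was the positive control; negative values mostly stem from fluorescent compounds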
Target sequence (P07550 whole entry, looked up): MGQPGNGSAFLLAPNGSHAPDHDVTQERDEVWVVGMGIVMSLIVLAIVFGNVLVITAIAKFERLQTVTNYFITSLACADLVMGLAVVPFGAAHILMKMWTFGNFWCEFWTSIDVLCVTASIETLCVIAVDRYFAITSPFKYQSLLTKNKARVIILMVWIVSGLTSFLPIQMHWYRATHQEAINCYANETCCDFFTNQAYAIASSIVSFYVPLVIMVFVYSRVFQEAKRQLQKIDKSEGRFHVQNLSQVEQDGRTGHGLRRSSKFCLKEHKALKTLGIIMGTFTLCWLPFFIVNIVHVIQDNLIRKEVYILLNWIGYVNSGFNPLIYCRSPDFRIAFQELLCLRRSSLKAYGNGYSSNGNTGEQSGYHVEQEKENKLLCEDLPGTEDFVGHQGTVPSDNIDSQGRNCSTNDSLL
Ecoli rRNA inh OD600 = also measured in Ecoli rRNA inh; calls as there; OD600 change, %; measured here: OD600 growth;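 optical density of the mix in the first replicate; 0 = DMSO median and -100 = no signal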
Ecoli rRNA inh RFP = also measured in Ecoli rRNA inh; calls as there; RFP signal change, %; measured here: RFP humanized mutant strains;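 first replicate; 0 = DMSO median and -100 = no signal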
An asterisk follows results filed as active; i = inactive; ? = inconclusive; nt = not tested or not shown. These rows are one share of the data, so the mix of outcomes need not match the whole.

SMILES	ALR inh	Calb FLC	LANA-H2A inh	Beta apoptosis	Ecoli rRNA inh	Ecoli rRNA inh OD600	Ecoli rRNA inh RFP	A1 inh	T cruzi inh	Beta2AR agonist
O=C(O)CCCCCNC(=O)/C(=C\c1ccco1)NC(=O)c1ccco1	nt	11	-3.4	-7	25	16	12	0.3	4	-8
COc1ccc(CNC(=O)C2CCC(=O)N(CCCN3CCCC3=O)C2)cc1 (stereo not drawn)	37	1	-4.1	nt	14	12	1.6	?	4	-3
CCCCn1nc(C(=O)Nc2ccc(S(=O)(=O)Nc3ncccn3)cc2)c2ccccc2c1=O	nt	-12	-2.1	-3	13	-1	6.9	1.4	-3	8
CCOC(=O)C1CCCN(Cc2ccc(OC)cc2OC)C1 (stereo not drawn)	-18	-4	6.0	5	nt	nt	nt	0.6	45	-2
CN(C)CCCn1c(N)c(S(=O)(=O)c2ccccc2)c2nc3ccccc3nc21	-20	-4	-5.4	-1	-28*	-20*	2.7*	-0.5	18	27
CCC(Sc1nc2cc(OC)c(OC)cc2c(=O)n1Cc1ccco1)C(=O)NCCOC (stereo not drawn)	0	-14	-5.6	4	nt	nt	nt	0.7	-1	-2
Cc1ccccc1C(=O)OC1CCN(C)CC1	-6	-6	-1.9	-2	11	6	1.7	-1.8	59*	-7
COc1ccc(NC(=O)Nc2ccccc2C(N)=O)cc1	1	-8	2.0	-9	8	5	-0.2	-2.4	-2	6
COc1cccc2[nH]c(C(=O)NC(C)c3ccccc3)cc12 (stereo not drawn)	-3	-10	-2.2	-5	-12	-23	-12	-0.3	-7	-2
Cc1ccc(S(=O)(=O)Nc2ccccc2)cc1C(=O)N1CCCC1	-1	-1	-1.2	1	2	5	-3.1	0.7	-1	-7
CCN(CC)c1ccc(/C=c2/sc3nnc(-c4ccccc4C)n3c2=O)cc1	-12	-2	-4.1	-3	nt	nt	nt	0.5	0	i
CCn1c(CCc2ccccc2)nc2ccccc21	14	-42	9.1	2	-23*	-19*	-1.3*	-2.1	2	-11
c1ccc(CN2CCN(Cc3nnc(-c4ccccc4)o3)CC2)cc1	12	2	0.3	5	13	9	-0.6	-0.5	23	-5
C=CCc1cccc(OC)c1OCCOCCn1ccnc1	0	-4	-0.8	-2	-5	1	-5.6	-0.2	-2	-5
Cc1cccc(CN2CCSCC2)c1	nt	-4	3.5	-3	13	16	0.6	1.0	-12	-7
CCN1CCc2c(C#N)c(N3CCCCC3)nc(N3CCOCC3)c2C1	3	-55	-2.5	0	nt	nt	nt	-0.2	49	3
CCOC(=O)CNC(=O)c1ccc2[nH]c3ccccc3c2c1	-8	-21	2.7	2	-13	-3	-1.7	0.1	16	28
Cc1cccc(C)c1NC(=S)N(CCCN1CCCCC1)Cc1ccco1	nt	-3	1.2	-7	0	8	-0.3	1.0	-7	-3
Oc1ccc(C=Nc2cccc3ccccc23)c(O)c1	-22	6	2.7	7	-3	-8	3.9	-0.4	-6	14
O=C1CC(N2CCN(c3ccccc3)CC2)C(=O)N1c1cccc(Br)c1 (stereo not drawn)	45	6	3.7	nt	8	3	0.8	0.0	-8	3
COc1ccccc1C(CC(=O)O)NS(=O)(=O)c1ccc2c(c1)N(C(C)=O)CC(C)O2 (stereo not drawn)	-3	11	3.0	7	7	16	-1.6	0.6	-25	-3
COc1cc(/C=C(\C#N)c2ccccn2)ccc1OCC(=O)Nc1ccc(Br)cc1	-5	-2	-4.1	3	9	20	-1.9	-1.2	-1	-4
Cc1ccc(Cl)cc1NC(=O)CN1CCN(S(=O)(=O)N2CCC(C)CC2)CC1	-4	26	4.0	2	-2	-12	1.9	-1.3	18	29
Cc1cccc(OCC(=O)NC(=S)NNC(=O)c2ccncc2)c1	8	-7	-5.8	-1	-6	0	-3.9	-1.5	-6	-1
CCOc1ccc2nc(NC(=O)c3cnc(C)cn3)sc2c1	-12	-3	0.8	3	nt	nt	nt	-0.4	31	15
COC(=O)c1ccccc1NC(=O)c1cc([N+](=O)[O-])nn1Cc1ccccc1	-5	-6	0.9	-2	nt	nt	nt	0.0	-6	-2
Cc1c(Cl)cccc1NC(=O)CCNC(=O)N1CC(=O)Nc2ccccc21	4	5	2.1	2	12	2	0.9	0.5	4	11
CC(=O)NC1C(=O)N=C(SCC(=O)NC2CCCCC2)NC1=O (stereo not drawn)	-20	1	-7.2	-6	5	1	0.2	1.1	1	5
CCOC(=O)c1cn[nH]c1N	-8	-1	3.6	-2	nt	nt	nt	-1.3	-6	2
O=C(CC1CCCC1)N1CCN(S(=O)(=O)c2ccc(F)cc2)CC1	8	nt	3.1	0	6	5	3.2	1.0	nt	5

Reprinted from the part before: 2 entries; new compounds follow.
SMILES	ALR inh	Calb FLC	LANA-H2A inh	Beta apoptosis	Ecoli rRNA inh	Ecoli rRNA inh OD600	Ecoli rRNA inh RFP	A1 inh	T cruzi inh	Beta2AR agonist
CCOC(=O)c1cn[nH]c1N	-8	-1	3.6	-2	nt	nt	nt	-1.3	-6	2
O=C(CC1CCCC1)N1CCN(S(=O)(=O)c2ccc(F)cc2)CC1	8	nt	3.1	0	6	5	3.2	1.0	nt	5
CCCc1cc2c(-c3ccccc3)cc(=O)oc2cc1OCc1ccc(C(=O)O)o1	42	20	-4.7	-13	-52	-81	-14	-0.8	-8	-3
CCOc1ccc(OCCC(=O)NNC(=O)c2cc(C)oc2C)cc1	39	-1	1.3	-6	5	7	2.9	-0.6	1	2
CN(CC(O)COc1ccc(OCC(O)CN(C)C2CCCCC2)cc1)C1CCCCC1 (stereo not drawn)	2	-1	-4.6	-15	nt	nt	nt	0.3	14	4
CC(Oc1ccc2ccc(=O)oc2c1)C(=O)NC1CCN(Cc2ccccc2)CC1 (stereo not drawn)	2	6	-2.3	-5	6	8	-0.2	-0.3	34	-6
O=C(NC1CCCC1)c1ccc(Br)c(S(=O)(=O)N2CCCCC2)c1	-8	-5	0.4	-1	7	17	-0.3	1.1	2	21
CCc1cccc(C)c1NC(=S)NCc1ccc2c(c1)cc(C)n2C	-15	124*	3.5	12	6	10	36	nt	48	-2
COc1ccc(OC)c(NC(=O)CSCC(=O)O)c1	-12	8	-6.1	-2	nt	nt	nt	1.0	-11	-2
COc1ccc(C(=O)NNC(=O)c2ccc(S(=O)(=O)N3CC(C)OC(C)C3)cc2)cc1 (stereo not drawn)	-13	7	1.6	-2	4	0	-0.8	0.0	-2	-6
O=C(O)c1nccnc1C(=O)Nc1ccccc1-c1ccccc1	nt	3	6.2	-8	nt	nt	nt	-1.0	10	7
COC(=O)C(C)Sc1ccc2nnc(-c3ccccc3)n2n1 (stereo not drawn)	-5	-38	-3.2	-1	9	12	0.8	-0.4	-1	2
O=C(NC1CCCCC1)C(c1ccccc1)N1CCc2ccccc21 (stereo not drawn)	98*	-7	-4.5	3	-4	-12	22	-0.5	17	2
COc1ccc(C)cc1NC(=O)c1cccc(C(=O)Nc2cc(C)ccc2OC)n1	-5	-8	-10	-2	12	13	3.8	1.1	19	-4
O=C1c2ccccc2C(=O)N1CCCCN(C(=O)c1ccco1)c1ccc(Cl)cc1	-12	-9	2.3	0	nt	nt	nt	-0.9	3	-14
COC(=O)CCC(=O)OC1(C)C(=O)C2=CN(C(CO)CO)C(c3ccc(OC)cc3)=CC2=C(Br)C1=O (stereo not drawn)	nt	17	0.6	-10	16	14	10	-0.6	-15	nt
COc1ccc(S(=O)(=O)N2CCCCCC2)cc1C(=O)N(C)Cc1ccccc1F	-2	18	-2.9	1	-13	-18	4.9	-0.8	12	1
C/C(=N\Nc1ccccn1)c1ccc(N2CCOCC2)cc1	98*	29	-0.6	5	6	-4	-4.6	0.8	19	3
CCOc1c(Cl)cc(Cl)cc1CNCCNCCO	-8	-8	-0.8	-5	nt	nt	nt	0.3	18	6
Nc1nc(Cl)nc(N(c2ccccc2)c2ccccc2)n1	-5	-2	1.3	-10	12	-4	-2.5	0.9	-17	7
Cc1ccc(NS(=O)(=O)c2cccc3nsnc23)cc1C	-1	19	0.0	-1	-14	-13	-1.5	0.9	1	2
O=C(Nc1ccccc1C(=O)NCC1CCCO1)c1ccco1 (stereo not drawn)	-17	-13	3.5	-2	nt	nt	nt	0.1	-15	-2

A different layout for some results above:
Results follow in this order: ALR inh | Calb FLC | LANA-H2A inh | Beta apoptosis | Ecoli rRNA inh | Ecoli rRNA inh OD600 | Ecoli rRNA inh RFP | A1 inh | T cruzi inh | Beta2AR agonist
O=C1c2ccccc2C(=O)N1CCCCN(C(=O)c1ccco1)c1ccc(Cl)cc1
→ -12 | -9 | 2.3 | 0 | nt | nt | nt | -0.9 | 3 | -14
COC(=O)CCC(=O)OC1(C)C(=O)C2=CN(C(CO)CO)C(c3ccc(OC)cc3)=CC2=C(Br)C1=O (stereo not drawn)
→ nt | 17 | 0.6 | -10 | 16 | 14 | 10 | -0.6 | -15 | nt
COc1ccc(S(=O)(=O)N2CCCCCC2)cc1C(=O)N(C)Cc1ccccc1F
→ -2 | 18 | -2.9 | 1 | -13 | -18 | 4.9 | -0.8 | 12 | 1
C/C(=N\Nc1ccccn1)c1ccc(N2CCOCC2)cc1
→ 98* | 29 | -0.6 | 5 | 6 | -4 | -4.6 | 0.8 | 19 | 3

Next compounds follow:
SMILES	ALR inh	Calb FLC	LANA-H2A inh	Beta apoptosis	Ecoli rRNA inh	Ecoli rRNA inh OD600	Ecoli rRNA inh RFP	A1 inh	T cruzi inh	Beta2AR agonist
CCOC(=O)N1CCN(C(=O)c2ccc(NC(=O)CC)cc2)CC1	-3	-8	1.6	1	nt	nt	nt	0.7	-9	-2
CC(C(=O)N1CCOCC1)N1C(=O)C2C3C=CC(C4CC34)C2C1=O (stereo not drawn)	-5	-9	-3.0	-3	8	9	-0.7	0.1	11	-9
Cc1ccc(CN2C(=O)c3ccccc3Sc3ccc(C(=O)NCCN4CCOCC4)cc32)cc1	nt	4	1.4	0	-14	-46	12	-0.5	0	3
CN(CC(=O)Nc1ccccc1Cl)C(=O)COC(=O)c1cccs1	-3	nt	-0.3	3	0	-7	-0.5	0.8	nt	1
CCN(CC)S(=O)(=O)c1cc(C(=O)Nc2nncs2)c(Cl)cc1Cl	7	?	4.9	-4	nt	nt	nt	0.9	-9	-1

With a hit mark in ALR inh (from the list above):
canonical_smiles	ALR inh	LANA-H2A inh	Ecoli rRNA inh	Ecoli rRNA inh OD600	Ecoli rRNA inh RFP	A1 inh	Beta2AR agonist
O=C(NC1CCCCC1)C(c1ccccc1)N1CCc2ccccc21 (stereo not drawn)	98*	-4.5	-4	-12	22	-0.5	2
C/C(=N\Nc1ccccn1)c1ccc(N2CCOCC2)cc1	98*	-0.6	6	-4	-4.6	0.8	3

Screening results (PubChem BioAssay)
